# Compound activity as filed in PubChem BioAssay.
# MITF inhib: inhibitors of MITF, primary screen, MITF inhibitor project, cell-based, luminescence | TRPM1 promoter luciferase, 24 h | inhibition, % (test concentration not listed) | 37,000 compounds, 0.28% hits;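 active = most replicates at 85% or more, or half of them and the mean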;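 also: human melanocyte line stably carrying TRPM1 promoter luciferase reporter; 0% = vehicle wells and 100% = a positive control; the first replicate is given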
# An asterisk follows results filed as active. An excerpt; rates above refer to the full screens.
# The first 3 records (preview)
compound	MITF inhib
CCOC(=O)c1c(NC(=O)Cn2nnc(-c3ccccc3)n2)sc2c1CCCC2	0.6
COc1ccc(N2C(=O)CC(SCC(=O)Nc3ccc(Cl)c(Cl)c3)C2=O)cc1 (stereo not given)	-0.6
CC1=C(C(=O)Nc2cccnc2)C(c2cccc(O)c2)n2nc(SCc3ccccc3)nc2N1 (stereo not given)	-6.2

# The list itself, previewed entries included:
compound	MITF inhib
CCOC(=O)c1c(NC(=O)Cn2nnc(-c3ccccc3)n2)sc2c1CCCC2	0.6
COc1ccc(N2C(=O)CC(SCC(=O)Nc3ccc(Cl)c(Cl)c3)C2=O)cc1 (stereo not given)	-0.6
CC1=C(C(=O)Nc2cccnc2)C(c2cccc(O)c2)n2nc(SCc3ccccc3)nc2N1 (stereo not given)	-6.2
Cc1ccc(NC(=O)CSc2nc(-c3ccccc3)cc(=O)[nH]2)cc1Cl	-11.1
O=C(CSc1nnc(-c2ccncc2)o1)Nc1cccc(C(F)(F)F)c1	-24.8
O=C1C(=O)N(Cc2ccco2)C(c2cccnc2)C1C(=O)c1cc2ccccc2o1 (stereo not given)	17.5
COC(=O)CSc1ncnc2c1sc1nc3c(cc12)COC(C)(C)C3	61.1
Cc1ccccc1-c1nc(SCC(=O)Nc2sc3c(c2C#N)CCCC3)n[nH]1	0.6
COc1cccc(NC(=O)CC2COc3ccccc3O2)c1 (stereo not given)	-14.4
Nc1nc(SCC(=O)c2ccc3c(c2)OCCO3)n[nH]1	-14.9

compound	MITF inhib
c1ccc2[nH]c(CSc3nc4ccccc4[nH]3)nc2c1	47.1
CN(CC(O)Cn1c2ccccc2c2ccccc21)S(C)(=O)=O (stereo not given)	4.5
Cn1c(=O)c2c(ncn2Cc2cc(-c3ccccc3)no2)n(C)c1=O	17.5
Cc1ccc(S(=O)(=O)c2nc(-c3ccccc3Cl)oc2NCC2CCCO2)cc1 (stereo not given)	19.8
Cc1ccc(S(=O)(=O)NCC(=O)Nc2ccc(C)c(Cl)c2)cc1	-1.4
Cc1cc(C)c(NC(=O)C(C)N(c2ccc(Oc3ccccc3)cc2)S(C)(=O)=O)c(C)c1 (stereo not given)	4.4
O=C(CSc1nccc(=O)[nH]1)Nc1ccc([N+](=O)[O-])cc1	-3.5
O=C(COc1ccccc1)Nc1ccc(Cl)cc1C(=O)O	16.9
COc1ccc(Cl)cc1NC(=O)CSc1nnc(-c2ccc(Cl)c(Cl)c2)n1C	1.8
O=C(CSc1nc2ccc(NC(=O)c3ccccc3Br)cc2s1)Nc1ccccc1	11.9

compound	MITF inhib
COc1cc(C(=O)NCC(=O)O)cc(OC)c1OC	-3.6
CCOc1ccccc1CNc1nc2nc3c(c(=O)n2[nH]1)CCC3	6.5
COc1ccc(S(=O)(=O)N(C)CC(=O)Nc2cccc([N+](=O)[O-])c2)cc1Cl	-5.6
CN(CC(=O)Nc1c(F)cccc1F)S(=O)(=O)c1ccc(Cl)cc1	-14.4
Cc1ccc(-c2nc3ccccc3c(=O)n2CCCn2ccnc2)cc1	-54.4
COc1ccccc1NC(=O)CSc1nnc(-c2ccccc2Cl)n1-c1ccccc1	24.3
COC(=O)c1ccccc1NC(=O)C(C)Oc1ccc2c(C)cc(=O)oc2c1 (stereo not given)	14.5
Cc1ccc(-c2nc(S(=O)(=O)c3ccc(Cl)cc3)c(SCC(N)=O)o2)cc1	6.7
CCOC(=O)C1=C(C)NC(=S)NC1c1cc(I)c(OCC#N)c(OC)c1 (stereo not given)	26.8
CC(C)(C)c1ccc(C(=O)Nc2ccc(NC(=O)COc3ccc([N+](=O)[O-])cc3)cc2)cc1	-5.4

compound	MITF inhib
CN(CC(=O)Nc1ccc(Oc2ccccc2)cc1)S(=O)(=O)c1ccc2ccccc2c1	13.5
O=C(CSC1=NCCN1)C1COc2ccccc2O1 (stereo not given)	-2.0
c1ccc(Cc2nnc3sc(C4COc5ccccc5O4)nn23)cc1 (stereo not given)	-25.4
COc1ccc(CN2C(=O)c3cccc4cccc(c34)C2=O)cc1S(=O)(=O)N1CCOCC1	14.4
CCN(CC)CC(O)Cn1c(C)c(-c2ccccc2)c2cc([N+](=O)[O-])ccc21 (stereo not given)	-49.1
O=C(O)CCc1ccc(-c2ccccc2)n1-c1ccc([N+](=O)[O-])cc1	4.3
CCc1ccc(C(Nc2cc(C)ccn2)c2ccc3ccc(C)nc3c2O)cc1 (stereo not given)	60.9
Cc1ccc(-c2nc3ncccc3o2)cc1NC(=O)COc1cc(Cl)c(Cl)cc1Cl	-23.3
O=C(NCCC(c1ccc(F)cc1)c1ccco1)c1cccs1 (stereo not given)	-53.5
Cc1ccc2cccc(OCC(=O)Nc3ccc(C)c([N+](=O)[O-])c3)c2n1	-3.8

compound	MITF inhib
O=C(CSc1nc(-c2ccccc2)cs1)Nc1ccc(Cl)cc1Cl	-35.6
Cc1ccc(S(=O)(=O)Nc2ccc(Br)cc2CNc2nc3ccccc3n2C)cc1	12.6
O=C(C1CCCO1)N1CCN(C(=S)Nc2ccc(S(=O)(=O)Nc3ncccn3)cc2)CC1 (stereo not given)	5.6
Cc1ccc(F)cc1NC(=O)CSc1nnnn1-c1ccccc1	2.6
COc1cc(F)ccc1S(=O)(=O)NC1CC(C)(C)NC(C)(C)C1	-0.1
CCN(CC(=O)Nc1ccccc1OC)S(=O)(=O)c1ccc2ccccc2c1	-8.6
COc1cc(CNC23CC4CC(C)(CC(C)(C4)C2)C3)cc(Br)c1OCC(N)=O	-2.1
Cc1cc(Cl)ccc1OC(C)C(=O)Nc1cccc(NC(=O)c2ccco2)c1 (stereo not given)	14.8
COc1ccc(OC(C)C(=O)Nc2ccncc2)cc1 (stereo not given)	3.3
CCn1c(SCC(=O)N2c3ccccc3Sc3ccccc32)nnc1-c1ccncc1	11.0

compound	MITF inhib
Cn1nnnc1SCC(=O)Nc1ccc([N+](=O)[O-])cc1	-11.1
CCOC(=O)CSc1nnc(-c2ccc(Cl)cc2)n1-c1ccccc1	-20.0
S=C(NCC1CCCO1)Nc1cccc(Cn2cc(Cl)cn2)c1 (stereo not given)	10.4
Cc1ccc(S(=O)(=O)NC(C(=O)O)C(C)C)cc1 (stereo not given)	1.1
Cc1ccc(Cn2c(NCc3nc4ccccc4n3C)nc3ccccc32)cc1	1.0
Clc1ccc(-n2c(SCc3nc4ccccc4s3)nnc2-c2cccs2)cc1	27.2
COc1ccc(S(=O)(=O)NCc2ccccc2)cc1-c1nnc2c3ccccc3c(C)nn12	36.4
Cc1ccccc1N(CC(=O)O)S(=O)(=O)c1ccc(Cl)cc1	-0.4
Cc1ccc2ccc(S(=O)(=O)NCc3ccccn3)cc2c1	-23.0
O=C(CSc1nnc(-c2ccc(Cl)cc2)o1)Nc1cc(C(F)(F)F)ccc1Cl	7.3

compound	MITF inhib
COc1ccccc1CC(=O)Nc1cc(Cl)ccc1C(=O)O	-6.1
CC(=O)Nc1ccc(S(=O)(=O)NC2(C(F)(F)F)C(=O)N(C3CCCCC3)C(C)=C2C(C)=O)cc1 (stereo not given)	-14.1
O=c1c2ccccc2nc(-c2ccco2)n1CCN1CCOCC1	-8.1
Cc1ccc2cccc(S(=O)(=O)n3nc(C)cc3C)c2n1	0.3
Nc1cc(N)nc(SCC(=O)c2ccc(Br)cc2)n1	-22.1
O=C(Nc1ccc(Br)cc1)c1cccc(S(=O)(=O)Nc2ccccn2)c1	38.8
Cc1ccc2nc(-c3ccccc3)cc(C(=O)NCCCn3ccnc3)c2c1	-29.9
CN(C)c1nc(Nc2nc3ccccc3[nH]2)nc(N(C)C)n1	47.5
COc1cc(-c2nnn(CC(=O)Nc3c(C)cccc3C)n2)cc(OC)c1OC	9.7
COc1ccccc1NC(=O)CSc1nnc(-c2ccc(Cl)cc2)o1	-74.3

compound	MITF inhib
COc1ccccc1NC(=O)c1sc2ncn(CC(=O)Nc3ccccc3C)c(=O)c2c1C	28.0
CCn1nc(C)c(NC(=O)CSc2nnc(-c3ccco3)n2C)c1C	-3.1
O=C(O)CNS(=O)(=O)c1ccc(-c2ccccc2)cc1	2.3
CCOc1ccc(-c2nnc(SCC(=O)c3ccccc3N)n2C)cc1	-38.8
CS(=O)(=O)N(CC(=O)Nc1ccccc1C(F)(F)F)c1ccccc1Br	-6.1
CCn1c(-c2nonc2NC(=O)c2ccccc2)nc2ccccc21	21.4
COc1cc(S(=O)(=O)n2cnc3ccccc32)c(OC)cc1Cl	0.1
O=C(CSc1nnc(-c2ccncc2)o1)Nc1ccccc1	-72.7
CC1(C)Cc2nc3nc(SCC(=O)Nc4ccccc4)n(-c4ccccc4)c(=O)c3cc2CO1	-23.2
COc1cc(CN2CCN(Cc3ccco3)CC2)c([N+](=O)[O-])cc1OC	13.2

compound	MITF inhib
CCOC(=O)c1ccc(NC(=O)Cn2cnc3ccccc3c2=O)cc1	6.2
COC(=O)Cc1[nH]nc2c1C1(CCSCC1)C(C#N)=C(N)O2	-32.9
COc1c(O)ccc(C(c2cn(C)c3ccccc23)c2cn(C)c3ccccc23)c1[N+](=O)[O-]	29.4
O=C(CSc1nc2ccc(NC(=O)c3ccccc3F)cc2s1)c1cccc([N+](=O)[O-])c1	39.4
Cc1cc(Cl)c(S(=O)(=O)Nc2ccc3c(c2)CCC3)cc1OCC(N)=O	10.9
COc1ccccc1NC(=O)c1cnc(Nc2nc3ccccc3o2)nc1C	-80.8
O=C(CSc1nnc(-c2ccccn2)n1-c1ccccc1)Nc1ccc2cn[nH]c2c1	4.3
O=C(O)CN(c1ccc2c(c1)OCCO2)S(=O)(=O)c1ccccc1	-1.8
Cc1cccc(NC(=O)CSc2nnc(-c3ccccc3)n2C2CCCCC2)c1C	18.4
O=C(COc1ccc([N+](=O)[O-])cc1)Nc1ccc2oc(-c3ccccc3F)nc2c1	-41.2

compound	MITF inhib
COc1ccc(OC)c(NC(=O)Cn2nc([N+](=O)[O-])cc2C)c1	-18.1
COc1ccc2ccccc2c1CNCc1ccccn1	-40.4
N#Cc1c(N)nc(SCC(=O)c2ccc(Cl)cc2)c(C#N)c1-c1ccco1	9.5
COc1ccc(OC)c(NC(=O)Cc2c(OC)ccc3cc(Br)ccc23)c1	20.8
COC(=O)c1c(NC(=O)c2cc(-c3ccccn3)nc3c(C)cc(C)cc23)sc(C)c1C	6.9
COc1ccc(Cl)cc1NC(=O)CN(C)S(=O)(=O)c1c(C)cc(C)cc1C	4.2
Cc1ccnc(SCC(=O)Nc2sc3c(c2C(=O)Nc2ccccc2)CCCC3)n1	2.3
COc1ccc(OC)c(N(CC(=O)N2CCc3ccccc3C2)S(C)(=O)=O)c1	24.8
O=C(Nc1ccc(S(=O)(=O)N2CCOCC2)cc1)c1cc(-c2ccncc2)nc2c(Cl)cccc12	40.8
Cc1ccc([N+](=O)[O-])cc1N(CC(=O)Nc1cccc(C)c1C)S(C)(=O)=O	2.9

compound	MITF inhib
Cc1nnc(SCC2=NN(c3nc4ccccc4s3)C(=O)C2)s1	-36.2
COCCCNC(=O)c1ccc(-c2nc3ccccc3nc2-c2ccccc2)cc1	13.7
Nc1cccc(S(=O)(=O)NCc2ccco2)c1	9.6
COc1ccccc1CNCc1cccc(OC)c1OC	8.6
c1csc(-c2nn3c(C4COc5ccccc5O4)nnc3s2)c1 (stereo not given)	-38.9
Cc1ccc(OCC(=O)N(c2ccccn2)C2CCCCC2)c(C)c1	14.6
O=S(=O)(c1ccc(F)cc1)c1nc(-c2ccc(F)cc2)oc1NCCN1CCOCC1	8.9
CC(C)c1ccccc1NC(=O)CCCN1C(=O)c2ccccc2C1=O	5.6
COC(=O)C(C)N(C(=O)c1ccccc1[N+](=O)[O-])c1c(C)cccc1C (stereo not given)	-1.6
O=C(CCN1C(=O)c2ccccc2C1=O)Nc1ccc(Nc2ccccc2)cc1	0.6

compound	MITF inhib
Oc1c(C(Nc2ccccn2)c2c(F)cccc2Cl)cc(Cl)c2cccnc12 (stereo not given)	67.4
Cc1cccc(NC(=O)CCCC(=O)O)c1	-4.6
CC(=O)Nc1nonc1-c1nc2ccccc2n1Cc1cccc2ccccc12	37.8
Cc1sc2nc(SCC(=O)NCC3CCCO3)n(-c3ccccc3)c(=O)c2c1C (stereo not given)	2.0
COc1cccc(NC(=O)CSC2CC(=O)N(c3cc(C)cc(C)c3)C2=O)c1 (stereo not given)	-7.3
O=C(CSc1nnc2ccc3ccccc3n12)Nc1nsc(-c2ccc(Cl)cc2)n1	-6.7
O=C(CCN1C(=O)c2ccccc2C1=O)Nc1cccc(O)c1	1.7
NC(=O)c1ccccc1NC(=O)CCCN1C(=O)c2ccccc2C1=O	4.8
Cn1c(SCC(=O)N2CCc3ccccc32)nnc1-c1ccco1	-0.8
CC(=O)Nc1sc(C)c(-c2ccccc2)c1C(=O)NCc1cccnc1	22.4

compound	MITF inhib
Cc1cc(NC(=O)CCN2CCC(C(N)=O)CC2)ccc1Br	-2.8
Cn1c(SCC(=O)N2CCc3ccccc32)nnc1-c1ccc(NC(=O)c2ccc(F)cc2)cc1	4.4
Cc1cc2nnc(SCC(=O)Nc3ccc(Cl)c(C(F)(F)F)c3)n2c2ccccc12	-15.0
O=C(CCCN1C(=O)c2ccccc2C1=O)Nc1ccc2ccccc2c1	27.7
Cc1nn(Cc2ccc(F)cc2)c(C)c1NC(=O)C1CC(c2c(F)cccc2Cl)=NO1 (stereo not given)	6.6
Cc1nc(SCC(=O)N2c3ccccc3Sc3ccccc32)nc2c1CCCC2	49.8
Cc1ccccc1NC(=O)C1CC=CCC1C(=O)O (stereo not given)	11.3
CCN(CC)CCn1nnc2c(=O)oc3ccccc3c21	3.1
O=[N+]([O-])c1ccccc1-c1ccc(CN2CCN3CCCC3C2C2CCCCC2)o1 (stereo not given)	-7.5
COC(=O)c1ccc(COc2nc(C)cc(C)c2C#N)o1	-14.8
O=C(Nc1ccc(S(=O)(=O)Nc2nccs2)cc1)c1cccnc1	1.9
